Screening results (PubChem)
rRNA inh HTS = inhibits bacterial ribosomal RNA function over humanized ribosomes | E. coli WT GFP vs humanized-ribosome RFP mutants, fluorescence, 24 h; hits give low values; DMSO median 0, no signal -100 | GFP signal change (wild-type ribosome), % (test concentration not listed) | 1.6% of 350,000 active | AID 720706;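 active = significant combined selectivity score with lowered wild-type GFP, culture density cut under 30%, mutant RFP and density less affected; inactive = any of these conditions unmet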; also: one replicate is shown; some compounds called inactive have numbers as strong as hits
Vif TR-FRET = inhibitors of Vif binding to APOBEC3G peptide, primary screen, biochemical, TR-FRET, GST-Vif 1-94, biotin-A3G peptide, dose response retest (AID 1117319). TR-FRET GST-Vif / biotin-A3G peptide binding; higher % means a stronger effect; test concentration not given here; strong numbers were not always called active. one-dose inhibition, %; IC50 in µM for titrated hits. 0.57% of 260,000 active;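 active = above the screen mean plus three standard deviations and confirmed in dose response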;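 also: Vif residues 1-94 fused to GST binding biotinylated APOBEC3G peptide 110-148; 0% = full assay without inhibitor and 100% = GST in place of GST-Vif; retest series ran down from 100 µM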
FGF22 binding = shifts melting point of recombinant human FGF22 | recombinant FGF22 thermal shift, SYPRO orange fluorescence; percent of sucrose octasulfate shift, DMSO zero | calls only at 9.99 µM | Q9HCT0 | 1.5% of 340,000 active;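 active = melting point raised past a set limit in the mean and every replicate; three in four hits are not shown here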
Target sequence (Q9HCT0 whole entry, looked up): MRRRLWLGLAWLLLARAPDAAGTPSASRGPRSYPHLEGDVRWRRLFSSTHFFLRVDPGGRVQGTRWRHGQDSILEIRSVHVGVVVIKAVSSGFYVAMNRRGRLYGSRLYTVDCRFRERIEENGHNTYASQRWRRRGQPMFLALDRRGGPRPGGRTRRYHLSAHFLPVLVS
Ecoli growth = E. coli growth inhibition; AID 1053175; 0.21% of 330,000 active; Escherichia coli growth, OD600, 23 h; hits give low values; OD600 absorbance (no concentration beside the values);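 active = OD600 absorbance below the run mean of sample wells minus 3.6 SD, in any replicate, cut at about 0.56 in these data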;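 also: stock transfer was 300 nL into about 60 µL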
MLL AF4-AF9 inh = inhibitors of human MLL-AF4/AF9 interaction. AID 651704. inhibition, % at 10 µM. 0.47% of 350,000 active. P42568. AlphaScreen, biotin-AF4 peptide binding to FLAG-AF9;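 active = every replicate reaching a set inhibition limit, whatever the replicate mean, cut at about 25% in these data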;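 also: 0% = plate neutral control median and 100% = total signal loss; the record names both 10 and 1 µM as test concentration; the first replicate is given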
HNF4A DNA FP = change in binding of human HNF4 alpha to DNA. activity change, % at 10 µM. P41235. 0.3% of 360,000 active. HNF4a-FITC DNA binding, fluorescence polarization, 1 h; in the data active = activity change above about 30%, passing the limit was not always enough;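 also: controls were the assay level and a saturating level of protein; the project sought stronger binding though the title names inhibitors; some compounds called inactive have numbers as strong as hits; positive values seem to mean higher polarization but the record does not say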
Target sequence (P41235 whole entry, looked up): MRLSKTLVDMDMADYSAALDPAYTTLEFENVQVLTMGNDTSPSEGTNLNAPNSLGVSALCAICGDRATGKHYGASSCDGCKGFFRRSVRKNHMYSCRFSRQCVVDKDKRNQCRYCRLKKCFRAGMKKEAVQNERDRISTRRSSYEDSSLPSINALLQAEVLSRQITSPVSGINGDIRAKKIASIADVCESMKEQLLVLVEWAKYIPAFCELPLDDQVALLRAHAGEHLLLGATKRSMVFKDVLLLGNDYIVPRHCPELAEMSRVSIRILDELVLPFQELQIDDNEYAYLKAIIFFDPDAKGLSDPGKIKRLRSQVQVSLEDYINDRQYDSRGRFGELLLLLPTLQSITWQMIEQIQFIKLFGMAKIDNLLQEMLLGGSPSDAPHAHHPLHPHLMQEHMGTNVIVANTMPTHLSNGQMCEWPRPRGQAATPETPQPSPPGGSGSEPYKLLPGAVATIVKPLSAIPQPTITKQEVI
ALR inh = human ALR oxidase inhibition via reduced H2O2; inhibition, % (concentration not given with the values); 3.8% of 290,000 active; P55789; purified ALR, DTT oxidation, H2O2 HRP-luminol luminescence;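 active = mean and each replicate at 75% or more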;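 also: stock transfer was 7.5 nL into about 7.5 µL; 0% = neutral wells and 100% = wells with inactivated enzyme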
Target sequence (P55789 whole entry, looked up): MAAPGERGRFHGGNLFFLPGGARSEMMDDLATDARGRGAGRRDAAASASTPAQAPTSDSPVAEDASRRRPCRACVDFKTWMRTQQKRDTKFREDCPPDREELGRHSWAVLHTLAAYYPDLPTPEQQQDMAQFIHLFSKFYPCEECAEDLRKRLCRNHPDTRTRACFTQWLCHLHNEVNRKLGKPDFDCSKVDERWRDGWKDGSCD
rRNA inh HTS OD600 = second read-out of rRNA inh HTS, no call of its own (marks repeat the call); OD600 change, %; measured here: OD600 growth;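 optical density of the mix in the first replicate; 0 = DMSO median and -100 = no signal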
rRNA inh HTS RFP = second read-out of rRNA inh HTS, no call of its own (marks repeat the call); RFP signal change, %; measured here: RFP humanized mutant strains;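 first replicate; 0 = DMSO median and -100 = no signal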
Starred values were filed as active, the others as inactive; i = inactive; · = not tested or not shown. An excerpt, so the mix of outcomes need not match the whole.

SMILES	rRNA inh HTS	rRNA inh HTS OD600	rRNA inh HTS RFP	Vif TR-FRET	FGF22 binding	Ecoli growth	MLL AF4-AF9 inh	HNF4A DNA FP	ALR inh
CN1C(=O)c2cc(NC(=O)C3CCOCC3)ccc2OC[C@@H]2O[C@@H](CC(=O)NCC3CC3)CC[C@@H]21	5	19	-2.4	·	i	·	-3.7	·	·
CC(=O)Nc1ccc(NC(=O)CSC2=NS(=O)(=O)c3cc(F)ccc3N2)cc1	16	13	-0.8	4%	i	0.7	1.2	1.3	·
COc1ccc(-c2noc(CCCc3ccccc3)n2)cc1OC	·	·	·	4%	·	0.69	·	1.5	-20
CCOC(=O)CC(=O)CSc1ncnc2c1nnn2-c1ccccc1	-3	-1	4.0	·	i	0.64	1.3	-0.2	-4
COc1cc(/C=N/N2C(=O)c3ccccc3C2=O)ccc1O	8	16	5.8	·	i	·	4.0	-1.4	46
O=C(O)CC1C(=O)NCCN1Cc1ccc(F)c(F)c1 (centres undefined)	10	8	1.0	-7%	i	0.73	2.4	-1.5	7
Cc1cc(C)cc(SCc2noc(C(=O)NCc3ccccc3)c2C(=O)NCc2ccccc2)c1	·	·	·	6%	·	0.74	·	-1.5	-4
CCOC(=O)CSc1ncc(-c2ccccc2)nn1	·	·	·	9%	·	0.65	·	-1.1	-5
Cc1cc(N)nc2nc(C(F)(F)F)nn12	24	23	0.5	·	i	0.7	-0.4	-1.0	0
CC(C)(Oc1ccc(Cl)cc1)C(=O)NCC1CCCO1 (centres undefined)	10	11	-0.3	·	i	0.64	-0.5	-5.8	-11
COc1ccc(-n2nnc3c(=O)n(CC(=O)N4CCC(Cc5ccccc5)CC4)cnc32)cc1	-1	7	-10	·	i	0.66	-10	-0.4	-2
C[C@H](CO)N1C[C@H](C)[C@H](CN(C)Cc2ccc(F)cc2)Oc2cc(C#CC3CC3)ccc2S1(=O)=O	-5	-14	2.5	·	i	·	2.2	·	·
O=C(NCC(c1cccs1)N1CCOCC1)c1ccccc1NS(=O)(=O)c1ccc(Cl)c([N+](=O)[O-])c1 (centres undefined)	-4	-7	0.8	2%	i	0.7	1.8	-1.4	-17
Cc1cc2c(cc1S(=O)(=O)NCc1ccccc1)OCC(=O)N2	3	12	-1.4	·	i	0.79	-1.4	-0.2	·
COc1ccc(NC(=O)Nc2cccc3c2O[C@@H](CN(C)CC2CC2)[C@H](C)CN([C@H](C)CO)C3=O)cc1	-4	-5	-1.0	·	i	·	0.1	·	·
CC1CCCN(C(=O)COC(=O)C2CCN(S(=O)(=O)c3ccc4c(c3)OCCO4)CC2)C1 (centres undefined)	-3	0	0.6	5%	i	0.62	-1.1	-2.5	2
CCCC(=O)Nc1ccc2c(c1)OC[C@H](C)N(Cc1ccccn1)C[C@H](C)[C@H](OC)CN(C)C2=O	-2	-1	2.8	·	i	·	0.4	·	·
CCOc1ccc(NCC(=O)c2ccc(C)cc2)cc1	-33*	-8.1*	1.9*	-2%	i	0.7	1.5	-4.6	13
C[C@H](CO)N1C[C@H](C)[C@H](CN(C)S(=O)(=O)c2cccs2)Oc2ccc(N(C)C)cc2CC1=O	-1	0	0.0	·	i	·	-0.6	·	·
COC(=O)C1=C(C)N(C)C(=NCc2ccc3c(c2)OCO3)NC1c1cccc(C(F)(F)F)c1 (centres undefined)	1	-25	8.7	·	i	·	3.1	·	·
O=c1c(F)cn(C2CCCO2)c(=O)n1Cc1c(F)cccc1Cl (centres undefined)	·	·	·	-2%	·	0.63	·	3.0	0
C[C@H](CO)N1C[C@H](C)[C@H](CN(C)Cc2ccc3c(c2)OCO3)Oc2c(NC(=O)Nc3cccc4ccccc34)cccc2C1=O	-3	-14	1.9	·	i	·	9.9	·	·
Cc1ccccc1S(=O)(=O)N1C[C@@H](O)COC[C@H]2O[C@H](CC(=O)N3CCCCC3)CC[C@@H]21	-3	-6	-2.1	·	i	·	-1.4	·	·
Cc1ccc(S(C)(=O)=O)cc1C(=O)N1CC(C(N)=O)Oc2ccccc21 (centres undefined)	·	·	·	0%	i	0.67	-0.3	4.5	-2
CCC(=O)n1nc(-c2ccccc2)nc1N	·	·	·	5%	·	0.7	·	-0.1	5
COc1cccc(C(C(=O)NC2CCCCC2)N(C(=O)c2ccccn2)c2cccnc2)c1 (centres undefined)	12	13	-6.6	-10%	·	0.67	-1.0	-1.0	-4
CC1(C)Cc2c(sc3nc(-c4cccs4)n(N)c(=O)c23)CO1	·	·	·	-3%	·	0.66	·	1.6	-21
O=C(Nc1ccc2c(c1)OCO2)N[C@@H]1CC[C@H](CCNC(=O)C2CCCC2)O[C@H]1CO	4	8	-1.9	·	i	·	-2.0	·	·
CC(C)(C)NC(=O)CC1C[C@H](C(=O)N2CCCCC2)[C@@]2(CCc3ccccc3)c3[nH]c4ccccc4c3CCN2C1=O (some centres undefined)	28	13	-0.4	1%	i	0.71	5.3	1.2	-1
O=C(COC(=O)C1CC1)Nc1ccc([N+](=O)[O-])cc1C(F)(F)F	1	9	-0.9	6%	i	0.67	1.0	-3.5	-18
C[C@H](CO)N1C[C@H](C)[C@@H](CN(C)CC2CCCCC2)Oc2ccc(NC(=O)Cc3ccccc3)cc2CC1=O	0	6	0.1	·	i	·	1.9	·	·
COC(=O)Cc1c(C)c2ccc(OCc3nn[nH]n3)c(C)c2oc1=O	·	·	·	7%	·	0.73	·	3.5	-13
Cc1cc(C)nc(SCc2cc(=O)c(OC(=O)c3ccc(Br)o3)co2)n1	·	·	·	3%	·	0.71	·	-0.6	64
Cc1ccc(NC2CCCN(C(=O)Cc3nonc3C)C2)cc1C (centres undefined)	0	-4	1.1	·	i	0.66	3.3	0.7	99*
COc1ccc(S(=O)(=O)N2CCN(CC(=O)Nc3c(C)n[nH]c3C)CC2)cc1OC	10	18	-1.6	5%	i	0.66	-1.0	-0.7	·
CCN(C(=O)COC(=O)CNC(=O)c1ccccc1C)C1=CCCCC1	·	·	·	9%	i	0.65	0.2	0.0	·
COc1ccc(CNC(=O)C(c2ccco2)N(Cc2cccs2)C(=O)Cc2cccs2)cc1 (centres undefined)	·	·	·	2%	·	0.74	·	2.8	0
COc1ccc(S(=O)(=O)N(C)C[C@H]2Oc3ccc(NS(=O)(=O)c4cccs4)cc3CC(=O)N([C@@H](C)CO)C[C@H]2C)cc1	2	-9	0.9	·	i	·	0.6	·	·
COc1ccc(CCC(=O)NCCS(=O)(=O)N2CCN(c3ccccc3OC)CC2)cc1	-15	-18	1.4	·	i	0.71	-2.0	-1.6	38
COc1ccc(-c2ccc([C@H]3[C@@H](C#N)N[C@@H]3CO)cc2)cc1	2	8	0.6	·	i	·	0.4	·	·
C=CCN1C(=O)CN=C1NCc1ccccc1	·	·	·	-2%	·	0.68	·	2.2	·
COc1ccc(CCNC(=O)C2CCN(S(=O)(=O)c3ccc4c(c3)oc(=O)n4C)CC2)cc1OC	0	13	1.1	-1%	i	0.66	-0.1	-2.1	-5
CS(=O)(=O)Nc1ccc2c(c1)[C@@H]1C[C@@H](CC(=O)NCc3ccncc3)O[C@H](CO)[C@@H]1O2	7	14	-1.3	·	i	·	-0.7	·	·
CN(C)/C=N/c1c(C#N)cnn1-c1ccccc1	9	13	0.5	0%	i	·	-67	1.4	-8
CO[C@H]1CN(C)C(=O)c2cc(NC(=O)C3CCC3)ccc2OC[C@H](C)N(C)C[C@@H]1C	3	7	0.9	·	i	·	-2.1	·	·
CC1(Cc2ccc(C(F)(F)F)o2)C(=O)Nc2cc(-c3ccc(F)cc3F)ccc21 (centres undefined)	2	-15	6.5	·	i	·	2.9	-0.2	·
COCCNC(=O)c1cccc(OC2CCN(Cc3ccc(F)c(OC)c3)CC2)c1	2	7	3.8	·	i	0.68	-1.0	-0.1	·
CC=Cc1ccc2n(c1=O)C[C@H]1[C@H](CO)[C@@H](C(=O)Nc3ccccc3)[C@@H]2N1C(=O)CC (mixture of isomers)	-1	-4	-7.1	·	i	·	-10	·	·
CCCCCOc1ccc(NC(=O)C2OC3OC(C)(C)OC3C3OC(C)(C)OC23)cc1 (centres undefined)	·	·	·	-1%	·	0.69	·	-1.9	-4
COc1cc2c(cc1OC)C(c1ccccc1)N(C(=O)CCl)CC2 (centres undefined)	·	·	·	6%	·	0.69	·	-0.4	-7
O=C(CSc1nncs1)NC(=O)NCc1ccccc1	13	13	-3.3	5%	i	0.69	-1.6	0.6	·
C[C@H](CO)N1C[C@H](C)[C@H](CN(C)Cc2ccc(C(=O)O)cc2)Oc2ccc(NC(=O)CCCN(C)C)cc2C1=O	3	8	-1.7	·	i	·	-2.0	·	·
CC(=O)Oc1ccccc1C(=O)NC(C)CCc1ccccc1 (centres undefined)	2	5	-5.7	·	i	0.61	-2.6	-2.0	14
CCOc1ccc(NS(=O)(=O)c2cc3c(cc2C)N(C)CCO3)cc1	-8	-52	5.6	·	i	0.76	16	1.5	1
COc1ccccc1-c1ccccc1[C@H]1[C@H](C#N)N(C(=O)C2CCC2)[C@H]1CO	-1	2	1.8	·	i	·	-1.0	·	·
CC(CC(=O)NC1CCCCC1)S(=O)(=O)c1ccc2c(c1)NC(=O)CO2 (centres undefined)	9	3	0.5	·	i	0.69	-5.9	0.7	-2
COc1ccc(S(=O)(=O)Nc2ccc3c(c2)C(=O)N([C@H](C)CO)C[C@H](C)[C@@H](CN(C)Cc2ccc(C(=O)O)cc2)O3)cc1	0	4	-2.5	·	i	·	-6.1	·	·
O=C(Nc1ccc(S(=O)(=O)N2CCOCC2)cc1)C1CCN(S(=O)(=O)c2ccc(F)cc2)CC1	-3	4	0.1	-3%	i	0.64	-3.8	4.2	-1
C[C@H](CO)N1C[C@H](C)[C@H](CN(C)S(=O)(=O)c2ccccc2)OCCCC[C@H](C)Oc2ccc(NC(=O)Nc3ccc(C(F)(F)F)cc3)cc2C1=O	3	8	-3.9	·	i	·	-1.9	·	·
CN1CCN(C(=O)c2cc3c(=O)n4ccccc4nc3s2)CC1	2	5	-1.5	·	i	0.72	-7.1	-0.1	·
CCOC(=O)C1=C(C)SC2=NS(=O)(=O)CCN21	·	·	·	16%	·	0.69	·	4.9	-1

An excerpt from above in order of molar mass, lowest first:
SMILES	rRNA inh HTS	rRNA inh HTS OD600	rRNA inh HTS RFP	Vif TR-FRET	FGF22 binding	Ecoli growth	MLL AF4-AF9 inh	HNF4A DNA FP	ALR inh
CCOC(=O)C1=C(C)SC2=NS(=O)(=O)CCN21	·	·	·	16%	·	0.69	·	4.9	-1
CN1CCN(C(=O)c2cc3c(=O)n4ccccc4nc3s2)CC1	2	5	-1.5	·	i	0.72	-7.1	-0.1	·
COCCNC(=O)c1cccc(OC2CCN(Cc3ccc(F)c(OC)c3)CC2)c1	2	7	3.8	·	i	0.68	-1.0	-0.1	·
CCCCCOc1ccc(NC(=O)C2OC3OC(C)(C)OC3C3OC(C)(C)OC23)cc1 (centres undefined)	·	·	·	-1%	·	0.69	·	-1.9	-4

Records listed above printed as active in ALR inh:
| SMILES | rRNA inh HTS | rRNA inh HTS OD600 | rRNA inh HTS RFP | Vif TR-FRET | FGF22 binding | MLL AF4-AF9 inh | HNF4A DNA FP | ALR inh |
| --- | --- | --- | --- | --- | --- | --- | --- | --- |
| Cc1ccc(NC2CCCN(C(=O)Cc3nonc3C)C2)cc1C (centres undefined) | 0 | -4 | 1.1 | · | i | 3.3 | 0.7 | 99* |
